# HNF4A DNA FP: change in binding of human HNF4 alpha to DNA. P41235. HNF4a-FITC DNA binding, fluorescence polarization, 1 h. activity change, % at 10 µM. actives 0.3% (n = 360,000); in the data active means activity change above about 30%, passing the limit was not always enough;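 further: controls were the assay level and a saturating level of protein; the project sought stronger binding though the title names inhibitors; some compounds called inactive have numbers as strong as hits; positive values seem to mean higher polarization but the record does not say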
# Target sequence (P41235 whole entry, looked up): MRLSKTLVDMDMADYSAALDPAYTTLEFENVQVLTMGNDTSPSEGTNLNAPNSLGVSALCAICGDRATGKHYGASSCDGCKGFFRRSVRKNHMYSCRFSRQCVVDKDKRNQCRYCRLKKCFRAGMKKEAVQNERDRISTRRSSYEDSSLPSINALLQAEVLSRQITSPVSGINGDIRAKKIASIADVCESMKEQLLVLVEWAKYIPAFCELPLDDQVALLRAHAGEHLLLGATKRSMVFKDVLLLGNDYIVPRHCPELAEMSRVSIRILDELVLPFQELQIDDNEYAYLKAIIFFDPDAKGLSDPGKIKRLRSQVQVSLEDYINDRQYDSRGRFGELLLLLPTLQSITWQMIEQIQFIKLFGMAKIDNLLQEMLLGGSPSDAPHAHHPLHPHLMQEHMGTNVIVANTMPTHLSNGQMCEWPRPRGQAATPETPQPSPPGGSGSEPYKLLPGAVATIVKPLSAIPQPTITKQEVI
# UCH37 DUB inh: blocks the human deubiquitinase UCH37. Q9Y5K5. purified proteasome/UCH37, Ub-AMC cleavage fluorescence. inhibition, % (concentration not given with the values). actives 0.33% (n = 330,000). AID 588478;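 active means mean of two replicates above 20%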;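 further: 0% = compound-free wells with enzyme and 100% = wells lacking proteasome; stock transfer was 100 nL into about 20 µL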
#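 system = Proteasome-associated human UCH37 deubiquitinase | amount = 0.15 nM proteasome as dispensed | medium = pH 7.4 Tris-HCl (50 mM) with ovalbumin, ATP-MgCl2, DTT | incubation = 30 min preincubation with enzyme, 25 min cleavage at room temperature | detection = AMC fluorescence 355/460 nm | read-out basis = percent inhibition | controls = no-proteasome and no-compound wells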
# Vif TR-FRET: HIV-1 Vif–A3G interaction blockers – biochemical, TR-FRET, GST-Vif 1-94, biotin-A3G peptide, dose response retest, primary screen (AID 1117319) | TR-FRET GST-Vif / biotin-A3G peptide binding; higher % means a stronger effect; test concentration not given here; strong numbers were not always called active | inhibition, %, or IC50 in µM where a hit was titrated | actives 0.57% (n = 260,000);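 active means above the screen mean plus three standard deviations and confirmed in dose response; inconclusive means results disagree or hit not tested in dose response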;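 further: Vif residues 1-94 fused to GST binding biotinylated APOBEC3G peptide 110-148; 0% = full assay without inhibitor and 100% = GST in place of GST-Vif; retest series ran down from 100 µM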
# Ecoli growth: blocks Escherichia coli growth; OD600, 23 h; hits give low values; OD600 absorbance (test concentration not listed); actives 0.21% (n = 330,000);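 active means OD600 absorbance below the run mean of sample wells minus 3.6 SD, in any replicate, cut at about 0.56 in these data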;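 further: stock transfer was 300 nL into about 60 µL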
# B2AR ag: human beta-2 adrenergic receptor agonism by FAP; Am2.2-beta2AR cells, FAP receptor internalization, flow cytometry; reference of the scale not given here; response, % (concentration not given with the values); actives 0.43% (n = 340,000);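 active means response above a set limit, near 3 SD of response in nonfluorescent compounds, cut at about 42% in these data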;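 further: stock transfer was 100 nL into about 11 µL; a reference agonist was the positive control; negative values mostly stem from fluorescent compounds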
# Target sequence (P07550 whole entry, looked up): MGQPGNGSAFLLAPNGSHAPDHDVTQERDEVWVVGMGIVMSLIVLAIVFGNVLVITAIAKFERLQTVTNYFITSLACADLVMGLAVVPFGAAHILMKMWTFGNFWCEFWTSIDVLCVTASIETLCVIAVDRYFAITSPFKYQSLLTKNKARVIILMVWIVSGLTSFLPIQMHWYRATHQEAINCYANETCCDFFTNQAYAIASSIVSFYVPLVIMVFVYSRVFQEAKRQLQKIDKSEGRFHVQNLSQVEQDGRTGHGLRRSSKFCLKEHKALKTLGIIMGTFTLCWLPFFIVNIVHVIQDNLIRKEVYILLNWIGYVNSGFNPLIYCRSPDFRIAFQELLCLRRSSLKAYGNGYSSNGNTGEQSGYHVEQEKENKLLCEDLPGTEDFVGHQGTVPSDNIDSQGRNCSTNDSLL
# A1 inh: inhibitors of the anti-apoptotic protein A1, read as caspase activation; MEF A1-2A-BIM cells, Caspase-Glo 3/7 luminescence, 3 h; percent of clofoctol response, vehicle zero; caspase activation, % (no concentration beside the values); actives 0.066% (n = 330,000); AID 2462;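 active means over half of replicate activation scores above 10%, or exactly half above 10 with the replicate mean above 10; inconclusive means replicate mean below 10 yet half the replicates above 10; inactive means over half of replicates below 10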;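 further: wells of about 30 µL received 50 nL stock; many hits fall short of the cut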
# LANA-H2A inh: blocks KSHV LANA binding to histone H2A/H2B; Q9QR71; cell-free LANA-H2A/H2B peptide, fluorescence polarization; inhibition, % (concentration not given with the values); actives 0.6% (n = 320,000); AID 2629; in the data active means inhibition mostly above about 10%, no sharp cut-off; inactive means mostly below about 6.7%;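 further: stock transfer was 7.5 nL into about 10 µL; 0% = median of vehicle wells and 100% = median of positive control wells; one replicate is shown; the record names a cut of 25% in any replicate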
# * = called active by the depositor; ? = inconclusive; nt = no result given. Not a hit list; overall some 2.1% were active at least once.
SMILES,HNF4A DNA FP,UCH37 DUB inh,Vif TR-FRET,Ecoli growth,B2AR ag,A1 inh,LANA-H2A inh
COc1cc(C(=O)NCCSc2ccccc2)cc(OC)c1OC,-2.0,3.1,nt,0.68,-6,-0.3,-1.2
CSc1nc(C)cc(Oc2ccc(OCCOc3ccccc3)nn2)n1,0.9,1.9,0%,0.68,-13,-1.6,6.3
CC(C)CN(C(=O)COC(=O)c1cc2ccccc2cc1O)c1c(N)n(Cc2ccccc2)c(=O)[nH]c1=O,1.6,2.5,0%,0.7,-2,nt,nt
Cc1ccc(C(=O)Cn2nnc3ccccc32)cc1,-0.6,3.8,?,0.67,-1,-2.2,-8.3
COc1ccccc1CNC(=O)c1ccc(S(=O)(=O)N2CCCC2)cc1,0.6,3.3,0%,0.74,1,-0.4,2.1
CN(Cc1ccc(F)cc1)C(=O)COc1ccccc1-c1ccccc1,0.9,6.3,nt,0.7,-3,0.5,-2.1
COc1ccc([C@@H](C)NC(=O)CCc2nnc(-c3cc(C)on3)o2)cc1,-1.5,-0.8,-3%,0.71,-9,-0.9,2.8
CN(C)C(CNC(=O)c1ccc2c(c1)S(=O)(=O)c1ccccc1C2=O)c1ccco1 (stereo not drawn),3.2,2.7,10%,0.64,-7,0.5,5.5
CCC(=O)Nc1ncc2c(n1)CC(c1ccco1)CC2=O (stereo not drawn),4.0,-3.2,32%,0.69,-12,0.2,0.4
CCCCS(=O)(=O)Nc1ccc(C)cn1,1.8,-69,nt,0.7,8,-0.2,-1.7
COc1ccc(/C=C/c2cc[n+](C(=O)Cc3ccccc3)cc2)cc1,3.7,-11,20%,0.68,-4,0.9,2.7
CS(=O)(=O)N(CC(=O)N1CCCCCC1)c1ccc(Cl)cc1,2.5,4.0,nt,0.61,-6,0.3,3.9
COc1ccc(-n2nc(C(=O)NCC(=O)N3CCCC(C)C3)c3ccccc3c2=O)cc1Cl (stereo not drawn),2.6,-17,nt,0.65,4,0.7,-5.0
CC1CC(C)CN(C(=O)COC(=O)Cc2c[nH]c3ccccc23)C1 (stereo not drawn),1.5,1.1,0%,0.7,-3,0.5,-0.8
Oc1ccccc1C=NNC(=S)Nc1ccc(F)cc1,-0.6,-0.9,1%,0.65,4,nt,nt
Cc1ccccc1Cn1cnc2ccccc21,-2.9,2.8,-1%,0.68,1,1.1,0.6
Cc1cc(C(=O)N2CCN(c3ccc([N+](=O)[O-])cc3)CC2)c(C)o1,-0.8,9.1,8%,0.69,5,0.1,2.6
CC1CCc2cc(F)ccc2N1C(=O)c1cccnc1 (stereo not drawn),-2.8,4.2,nt,0.7,-1,-0.1,3.6
CCO/C=N/Nc1nc(C(F)(F)F)nc2c1cnn2Cc1ccccc1,-2.9,nt,-9%,nt,8,-4.7,-4.5
COc1ccc(CCC(=O)N2CCCC(Nc3ccccc3)C2)cc1OC (stereo not drawn),-3.7,nt,-8%,nt,13,0.1,4.1
Cc1cccc(CN2CCN(C(=O)CN(C)C(C)C(=O)Nc3ccc(C(N)=O)cc3)CC2)c1 (stereo not drawn),5.5,0.4,-7%,0.68,4,2.0,-23
CCCNc1nc(OC(C(F)(F)F)C(F)(F)F)nc(OC(C(F)(F)F)C(F)(F)F)n1,4.7,-0.5,-2%,0.66,6,0.6,1.4
O=c1[nH]c(CN2CCOCC2)nc2ccccc12,-4.4,3.7,-2%,0.7,-3,1.0,2.0
Cc1c2c(nc3c(C(=O)NC4CCCC4)cnn13)CCCC2,2.9,-98,12%,0.72,-32,0.1,-2.4
CCOC(=O)c1oc2ccccc2c1NC(=O)c1cccc(OC)c1OC,-0.4,-8.2,-6%,0.76,7,-1.2,4.5

# Rewritten with two lines to a compound: entries from further up.
# Results follow in this order: HNF4A DNA FP	UCH37 DUB inh	Vif TR-FRET	Ecoli growth	B2AR ag	A1 inh	LANA-H2A inh
> COc1ccc(-n2nc(C(=O)NCC(=O)N3CCCC(C)C3)c3ccccc3c2=O)cc1Cl (stereo not drawn)
 : 2.6	-17	nt	0.65	4	0.7	-5.0
> Cc1ccc(C(=O)Cn2nnc3ccccc32)cc1
 : -0.6	3.8	?	0.67	-1	-2.2	-8.3
> COc1ccc(CCC(=O)N2CCCC(Nc3ccccc3)C2)cc1OC (stereo not drawn)
 : -3.7	nt	-8%	nt	13	0.1	4.1

# Additional records follow:
SMILES,HNF4A DNA FP,UCH37 DUB inh,Vif TR-FRET,Ecoli growth,B2AR ag,A1 inh,LANA-H2A inh
O=C(N/N=C/C=C/c1ccco1)c1cccnc1,1.6,nt,?,nt,0,-0.5,0.2
COc1cc(SC)ccc1C(=O)Nc1ccon1,-1.4,5.1,-5%,0.69,-6,0.1,3.6
COc1cc(NC(=O)C2=CC(c3cccs3)=NS(=O)(=O)N2C)cc(OC)c1OC,-2.2,9.3,nt,0.73,-7,1.2,1.5
Cc1noc(NS(=O)(=O)c2ccc(NC(=O)c3cccc(S(=O)(=O)Nc4ccccc4F)c3)cc2)c1C,-7.9,6.8,nt,0.72,3,0.6,2.6
CCCOc1ccc(/C=N/NC(=O)C(=O)Nc2ccccn2)cc1,-0.2,nt,-2%,nt,5,0.5,3.3
O=C(NC(=S)NC1C2CC3CC(C2)CC1C3)C12CC3CC(CC(C3)C1)C2 (stereo not drawn),-3.3,1.4,nt,0.74,3,1.0,-1.5
CCOC(=O)c1c(C)n(C)c2cc(-c3ccc(C)cc3)c(O)cc12,-0.9,5.3,1%,0.72,1,-0.1,-6.4
CCC(C)c1ccc(NC(=S)NC(C)C2CCCO2)cc1 (stereo not drawn),-3.8,4.7,?,0.65,2,-0.3,1.7
O=C1CC(N2CCN(c3ccccc3Cl)CC2)C(=O)N1c1cccc(F)c1 (stereo not drawn),1.2,2.5,6%,0.72,0,2.2,-6.1
O=C(Nc1ccc(Cl)c(S(=O)(=O)N2CCOCC2)c1)c1ccc2c(c1)OCCO2,2.9,0.6,-2%,0.68,-1,0.1,3.8
Cc1ccc(S(=O)(=O)N2CCC(C(=O)NCCc3ccc(S(N)(=O)=O)cc3)CC2)cc1,-1.6,2.2,-3%,0.75,2,-0.4,1.1
COc1ccc(CNc2nc3c(c(=O)n(Cc4ccc(Cl)cc4)c(=O)n3C)n2C)cc1,-3.7,2.2,4%,0.74,8,-0.7,1.4
Cc1c(N=C2N=C(NC(=O)Nc3ccc(Cl)cc3)c3ccccc32)c(=O)n(-c2ccccc2)n1C,185,-7.4,nt,0.78,2,0.6,6.2
Cc1cc(N2CCCC2)nc2ccccc12,2.1,-4.3,0%,0.64,-3,1.1,-6.4
CN(C(=O)CSc1ncc(C(F)(F)F)cc1Cl)c1c(N)n(Cc2ccccc2)c(=O)[nH]c1=O,0.1,3.4,-6%,0.7,-12,0.3,1.0
Cc1ccc(NC(=O)CS(=O)CC(=O)N(CC(=O)NC(C)(C)C)c2cccc(C)c2C)cc1 (stereo not drawn),-0.3,-0.1,nt,0.64,6,1.2,-0.6
CCn1c(=O)c(C(C)=O)c(O)c2ccccc21,2.6,2.0,1%,0.69,-1,1.0,0.6
CCCCN(C)C1=Nc2cccc3cccc1c23,-5.0,-37,13%,0.66,2,1.2,1.6
CN(C)C(=O)CN(C)S(=O)(=O)c1ccc(Cl)cc1,-0.5,4.4,20%,0.71,-5,0.9,4.5
Cc1ccc([N+](=O)[O-])cc1NC(=O)c1c(-c2ccccc2)noc1C,7.4,5.0,nt,0.7,-14,0.5,0.6
CCOC(=O)C1=NNC2(c3ccc(Cl)cc3)C(=O)N(c3cc(C)cc(C)c3)C(=O)C12 (stereo not drawn),0.5,3.7,1%,0.66,-8,-0.3,3.4
CC1(C)NC(=O)N(CCOCCOc2ccccc2-c2ccccc2)C1=O,9.2,0.0,-10%,0.64,-2,0.6,2.1
Cc1cc(C)nc(SCC(=O)Nc2ccc(S(=O)(=O)Nc3ncccn3)cc2)n1,-0.8,2.2,-11%,0.74,11,1.3,-5.9
OC(COCc1ccccc1)CN1CCCCC1 (stereo not drawn),4.2,2.8,9%,0.69,2,-1.1,2.9
CC1CCCN(Cc2nc3c(c(=O)n(C)c(=O)n3C)n2CC(N)=O)C1 (stereo not drawn),0.4,1.5,31%,0.71,15,0.0,13*

# (list continues)
SMILES,HNF4A DNA FP,UCH37 DUB inh,Vif TR-FRET,Ecoli growth,B2AR ag,A1 inh,LANA-H2A inh
COc1ccccc1S(=O)(=O)N1CCN(S(=O)(=O)c2cccs2)CC1,1.5,0.3,-2%,0.66,5,0.0,-16
CC(=O)NC12CC3CC(C1)CC(C(=O)N1CCN(S(=O)(=O)c4cccc(F)c4)CC1)(C3)C2,0.2,2.1,nt,0.68,-1,0.1,1.6
Cc1ccc(-c2cn(-c3ccccc3)c(SCC(N)=O)n2)cc1C,0.1,-0.4,nt,0.7,5,0.0,1.0
CCOC(=O)C1CCN(S(=O)(=O)c2ccc(-c3ccccn3)s2)CC1,-2.6,-1.6,-7%,0.66,2,0.2,1.3
O=S(=O)(/N=C(\c1ccc(Cl)cc1)N1CCOCC1)c1ccccc1,1.3,nt,22%,nt,8,0.2,0.9
Cn1c(-c2nonc2N)nc2ccccc21,-2.8,-0.2,5%,0.66,5,1.0,1.2
COc1ccccc1CNC(=O)CSc1n[nH]c(N)n1,2.8,2.1,-7%,0.69,-2,0.6,6.5
CCOc1ccc(NC(=O)COc2ccc(S(=O)(=O)N3CCCC3)cc2)cc1,2.1,3.4,nt,0.67,-19,0.1,0.7
O=C1c2ccccc2C(=O)c2c1cccc2N1CCCC1,-2.4,7.7,nt,0.66,-14,0.3,0.0
Cc1ccc(C)c(NC(=O)CS(=O)(=O)c2cccc3nsnc23)c1,5.3,2.0,-1%,0.72,-1,-3.2,-3.2
COc1ccccc1-c1nnc(NC(C)=O)s1,-3.2,-12,-5%,0.69,-8,-5.6,-2.9
Cc1cc(SCCOc2ccccc2)nc(N)n1,-3.7,5.8,-2%,0.68,-2,0.2,1.9
NNC(=O)CNc1cccc(Br)c1,5.5,5.1,?,0.69,1,0.6,1.1
Cc1ccc(S(=O)(=O)N2CCC(C)CC2)cc1,2.4,1.2,nt,0.66,-1,1.9,1.9
CC(O)c1ccc2c(c1)OCCOCCN(C)CCOCCO2 (stereo not drawn),0.3,0.2,-6%,0.75,8,-0.2,3.2
COCCNC(=O)CSc1ccc(Cl)cc1,-0.8,1.6,27%,0.69,-4,-0.3,-17
Cc1cc(Cl)ccc1Oc1nccc(N(C)C)c1C#N,-1.6,1.2,-2%,0.68,-2,0.4,-1.2
COC(=O)c1nc[nH]c1[N+](=O)[O-],-1.4,0.6,-2%,0.69,2,nt,nt
C#CCOCCOCCOCCNc1nc(N2CCN(C(=O)C([C@@H](C)CC)n3cc(C(N)Cc4ccc(O)cc4)nn3)CC2)nc(N2CCN(C(=O)[C@H](CCC(=O)O)n3cc(C(N)CC(C)C)nn3)CC2)n1 (stereo partly drawn),-1.1,5.5,nt,0.78,1,1.8,-3.2
COCCn1c(N)c(C(=O)NS(=O)(=O)c2ccc(C)cc2)c(=O)[nH]c1=O,-1.2,-0.3,nt,0.71,3,-0.5,2.5
COc1ccc(C(=O)Nn2c(C)nc3ccccc3c2=O)cc1,-3.3,1.3,nt,0.68,-6,-0.1,-2.9
COc1cc(C2C3=C(CCCC3=O)Nc3[nH]n(-c4ccccc4)c(=O)c32)ccc1OC(C)=O (stereo not drawn),-3.1,8.8,14%,0.67,-1,0.1,0.4
CCCCN(CC)CCNC(=O)c1cc2c(=O)n(C)c3ccccc3c2n1C,1.6,-5.8,1%,0.76,-4,0.8,-1.3
COc1ccc(-c2cc(C(F)(F)F)n3ncc(C(=O)N(C)Cc4ccccc4)c3n2)cc1,-2.5,-77,-1%,0.7,10,-1.3,-3.4
COc1ccc(C(=O)NCc2ccc3c(c2)cc(C)n3C)cc1OC,-7.0,0.5,-3%,0.67,-2,1.4,-0.3

# Compound activity (PubChem BioAssay)
